Rango complex inh: Rango-importin beta binding inhibition | Potency, µM (titrated, usually from 92.2 µM), without a hit: top-dose inhibition of complex formation | Q14974 | AID 540263 | actives 0.031% (n = 340,000) | Rango CFP/YFP FRET sensor + importin beta, 45 min; active = rising FRET ratio curve, often small or poorly fitted; inconclusive = mostly compound fluorescence or quenching in the first reads; inactive = flat curves in all reads;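 note: potency is the fitted concentration of half-maximal effect; 0% = DMSO wells and 100% = buffer wells lacking importin beta; nearly all actives have a fitted effect of over 15% in size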
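Inhibition scored from the CFP 486 nm/YFP 530 nm FRET ratio 45 min after adding 0.125 microM importin beta to 50 nM Rango biosensor preincubated 5 min with compound (room temperature, PBS with DTT, Tween-20, BSA). No-importin wells as positive control.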
miR-21 FLuc: miR-21 reporter, rising signal; HeLa miR-21 FLuc reporter, luciferase, 48 h; Potency, µM (doses to about 38.3 µM), for inactives: at the top dose reporter change, positive = more light; 340,000 tested, under 10 active; AID 2288; active = well fitted rising curve with a large enough effect; inconclusive = small, poorly fitted or top-dose-only effect; inactive = no such curve, though single readings can be large or run the other way;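 note: % of control where 0% means no effect; miR-21 action dims this reporter so a rising signal means less miR-21 action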
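Using DMEM plus 10% FBS, HeLa miR-21-FLuc cells are incubated with test compounds (final up to about 40uM) for 48 hours; firefly luciferase signal is then imaged following reagent-mediated lysis.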
GLA inh pH 4.5: blocks human alpha-galactosidase A at pH 4.5 | P06280 | activity change, negative = inhibition, % at 105 µM | 230,000 tested, under 10 active | purified enzyme, 4-MU-alpha-Gal fluorescence, pH 4.5; inconclusive = small, poorly fitted or top-dose-only inhibition, or a rising curve; inactive = flat fitted curve, though single readings scatter; no compound was filed as active;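 note: 0% = full activity with enzyme and -100% = basal without enzyme; dose as in the result columns while the protocol names 77 µM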
Target sequence (P06280 whole entry, looked up): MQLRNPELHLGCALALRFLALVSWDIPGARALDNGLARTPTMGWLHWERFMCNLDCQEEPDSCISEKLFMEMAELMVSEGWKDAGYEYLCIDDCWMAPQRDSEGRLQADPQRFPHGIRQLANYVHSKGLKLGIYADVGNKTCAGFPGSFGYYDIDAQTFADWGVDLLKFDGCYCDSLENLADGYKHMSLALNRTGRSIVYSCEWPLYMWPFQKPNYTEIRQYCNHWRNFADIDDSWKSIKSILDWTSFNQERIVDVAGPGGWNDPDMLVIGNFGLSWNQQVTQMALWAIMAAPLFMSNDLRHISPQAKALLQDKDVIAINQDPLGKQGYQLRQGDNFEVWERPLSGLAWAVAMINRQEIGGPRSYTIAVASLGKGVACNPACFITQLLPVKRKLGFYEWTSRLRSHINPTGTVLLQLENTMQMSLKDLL
Rango dissoc inh: inhibitors of RanGTP-induced Rango-importin beta complex dissociation. Potency, µM (highest dose often 46.1 µM), for the others: at the top dose activity change, negative = inhibition. actives 0.071% (n = 340,000). AID 540253. O95149+P62826. Biochemical FRET Rango-importin beta, RanGTP-induced dissociation; active means falling FRET ratio curve, often poorly fitted, with flat reads before Ran was added; inconclusive means other falling curves, or compound fluorescence or quenching; inactive means flat or rising ratio curve;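 note: potency is the fitted concentration of half-maximal effect; % of control where 0% means no effect; nearly all actives have a fitted effect of over 45% in size; -100% = wells without RanGTP and RCC1; the record marks most hits as doubtful in a second field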
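Two FRET readings bracket the reaction: one 5 min after compound meets Rango–importin beta, another 45 min after RanGTP-RCC1 (0.6 uM Ran, 0.2 uM RCC1, 2 mM GTP) is added. Only the second defines inhibition.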
* = called active by the depositor; ? = inconclusive; nt = not tested or not shown; & = joins results of further samples.

| molecule | Rango complex inh | miR-21 FLuc | GLA inh pH 4.5 | Rango dissoc inh |
| --- | --- | --- | --- | --- |
| COc1cccc2c3c(c(C)nc12)CCN3c1ccccc1 | 0.2% | 18% | 11 | -4% |
| CC(=O)c1cccc(NC(=O)C2CCCN(S(=O)(=O)c3cccc4nonc34)C2)c1 (configuration not stated) | 4.9% | 4% | nt | -24% |
| Cc1ccc(S(=O)(=O)Nc2cc(=O)[nH]c(SCC(=O)Nc3ccccc3C(F)(F)F)n2)cc1 | -4.2% | -1% | nt | 29% |
| O=C(NC1CC1)C1CCN(C2CCN(C(=O)CC3=CCCCC3)CC2)CC1 | 0.4% | -1% | 1 | 1% |
| CCOC(=O)C1=C(COC(=O)/C=C/c2cccc(F)c2)NC(=O)NC1C (configuration not stated) | -4.2% | nt | nt | 6% |
| COc1cc(C(=O)OC(C)CN2CCN(C)CC2)cc(OC)c1OC (configuration not stated) | 6.9% | -3% | 5 | -11% |
| COc1ccc(C(=O)NCC(=O)OCC(=O)N(C)c2ccccc2)cc1 | 0.6% | -2% | -1 | -8% |
| COC(=O)[C@]1(Cc2ccccc2)N[C@H](CN(C)S(=O)(=O)c2ccc(C(F)(F)F)cc2)[C@@H]2C(=O)N(Cc3ccccc3)C(=O)[C@@H]21 | -2.9% | nt | nt | -1% |
| COc1ccc(N2CCN(C(=O)CNC(=O)c3ccc4ccccc4c3)CC2)cc1 | -3.9% | nt | nt | -5% |
| COCCNC(=O)C1(C)Oc2ccccc2NC1=O (configuration not stated) | -1.4% | -4% | -3 | -6% |
| Cc1ccc(N2C(=O)c3ccc(C(=O)N4CCN(c5cccc(C)c5C)CC4)cc3C2=O)cc1 | -1.5% | -1% | -7 | 4% |
| CC(C)CNC(=O)C1CCCN1S(=O)(=O)c1ccc(Cl)cc1 (configuration not stated) | 0.8% | 1% | -2 | -8% |
| CC(C)(C)c1ccc(C(=O)NCC(=O)N/N=C/c2cccnc2)cc1 | -0.3% | -11% | nt | 0% |
| NC(=O)NC(=O)CN1C(=O)NC2(CCOc3ccccc32)C1=O (configuration not stated) | -4.7% | 2% | nt | -6% |
| CC(C)CCNC(=S)Nc1ccc(F)cc1 | -4.2% | nt | nt | 1% |
| COc1ccc2nc(SCC(=O)NCCc3ccccc3)[nH]c2c1 | 3.9% | -4% | -7 | 14% |
| Cc1c(C(=O)N2CCN(CCc3ccccn3)CC2)oc2ccc(F)cc12 | 3.1% | -6% | nt | 0% |
| CCOCCCNC(=S)N1C2CCC1CC(NC(=O)NC1CCCCC1)C2 (configuration not stated) | -4.6% | -4% | -8 | -4% |
| Cc1ccc(-c2c(C#N)c(N)nc3c2CCCCCC3)o1 | 2.7% | -3% | -3 | 4% |
| O=C(C1CCN(Cc2ccc(F)cc2)CC1)N(CCO)Cc1ccccc1 | 2.8% | -1% | -1 | 1% |
| O=C(CSc1cccc2cccnc12)Nc1ccccc1F | 2.2% | -26% | nt | -8% |
| COc1ccc(C(CCN2CCCC(C)C2)c2c(OC)cc(OC)c3c2OC(=O)CC3c2cc(OC)c(OC)c(OC)c2)cc1 (configuration not stated) | -0.8% | -3% | -2 | 12% |
| O=C(NC1CC1)C1CCN(c2ccc(S(=O)(=O)N3CCOCC3)cc2Cl)CC1 | 4.4% | 0% | -5 | 2% |
| COc1ccc([C@@H]2C[C@@H](c3ccccc3)Oc3cc(OC)c(OC)c(OC)c32)cc1 | 1.3% | -2% | -6 | 2% |
| COc1ccc(OCCn2c(NC(=O)c3ccco3)nc3ccccc32)cc1 | -3.1% | 14% | 5 | -5% |
| Clc1ccc(CSc2nnc(/C=C/c3ccccc3)o2)cc1 | -0.1% | -6% | 0 | 9% |
| CCn1cnc2c1c(=O)n(Cc1cccc([N+](=O)[O-])c1)c(=O)n2Cc1ccccc1 | 4.5% | -5% | nt | -11% |
| Cc1ccc(S(=O)(=O)N2CCN(C(=O)c3cc(=O)[nH]c4ccccc34)CC2)c(C)c1 | 1.3% | 13% | -29 | -11% |
| CC(=O)c1ccccc1NC(=O)c1ccc2c(c1)NC(=O)C(C)S2 (configuration not stated) | 3.7% | nt | nt | 0% |
| COc1ccc(NC(=O)CNCCC2=CCCCC2)cc1 | 2.0% | -21% | 3 | -20% |
| COC(=O)c1ccc(CCc2cc(O)c(Br)cc2O)cc1 | 0.9% | nt | nt | -16% |
| CC1(C)Cc2c(c(=S)nc(-c3ccccc3)n2CCOCCO)CO1 | 0.2% | -8% | -2 | 21% |
| CC(=O)N1CCN=C1SCc1ccccc1Cl | 0.6% | -2% | -1 | 15% |
| Cc1ccccc1-c1noc(CCC(=O)NCc2ccco2)n1 | -0.1% | -1% | 2 | -19% |
| CC(=O)Nc1ccc2[nH]c(C)c(CC=C(Cl)Cl)c(=O)c2c1 | 6.7% | -2% | 0 | -6% |
| CSc1ccc(Cl)c(C(=O)NCc2ccco2)c1 | -5.7% | -3% | 1 | 15% |
| O=[N+]([O-])c1ccc(S(=O)(=O)NN=Cc2ccc(Cl)c(Cl)c2)cc1 | 11% | nt | nt | 11% |
| CN(C)CCN(C)Cc1c2ccccc2c(CN(C)CCN(C)C)c2ccccc12 | 4.4% | -3% | nt | -22% |
| Cc1ccc(NC(=O)Cc2noc3ccccc23)nc1 | ? | -60% | -15 | -1% |
| Cc1cc(Nc2ccc3c(c2)OCCO3)c2cccc(C)c2n1 | 0.1% | 14% | -16 | 1% |
| COc1ccc(N2CC(NS(=O)(=O)c3cccs3)CC2=O)cc1 (configuration not stated) | 3.6% | nt | nt | 34% |
| CCC(C)(C)NC(=O)C(c1cccc(OC)c1OC)N(Cc1ccccc1)C(=O)CCC(=O)Nc1cc(C)on1 (configuration not stated) | 5.1% | 9% | nt | 4% |
| Clc1ccc(C=NC23CN4CN(CN(C4)C2)C3)cc1 | 3.6% | -3% | 11 | -3% |
| CCC(=O)n1nc(-c2cccnc2)nc1NCc1ccc(OC)cc1 | -0.1% | -10% | -4 | 15% |
| Cc1cccc(N2C(=O)C(Oc3ccc(Cl)cc3Cl)C2C(=O)O)c1C (configuration not stated) | -1.9% | 1% | -24 | -6% |
| Cc1ccccc1Cn1cc(NC(=O)c2nn(C)cc2Cl)cn1 | 3.4% | -26% | 9 | 23% |
| CCN(CC(=O)NCc1ccc(Cl)cc1)C(=O)CSc1cccc(C(F)(F)F)c1 | 0.0% | nt | nt | -5% |
| O=C(COC(=O)c1cccs1)NCc1ccco1 | 0.5% | 2% | 2 | -13% |
| Cc1nc2ccccc2n1/N=C/c1ccc([N+](=O)[O-])s1 | 5.9% | 16% | -12 | 0% |
| Cc1ccccc1C(=O)Nc1nnc(-c2ccc(C(C)(C)C)cc2)s1 | 3.9% | -29% | 1 | -2% |
| COC(=O)C1CN(S(=O)(=O)c2cc(OC)ccc2OC)CCS1 (configuration not stated) | -2.3% | 0% | nt | 16% |
| N#Cc1nc(Cc2cccc3ccccc23)oc1NCCN1CCCCC1 | -0.7% | -9% | -9 | -19% |
| COc1ccc(NC(=O)N(C)C[C@H]2Oc3c(NC(=O)NC(C)C)cccc3C(=O)N([C@H](C)CO)C[C@@H]2C)cc1 | -5.9% | nt | nt | 20% |
| CC1CC(c2ccccc2)n2nc(NC(=O)c3cccs3)nc2N1 (configuration not stated) | -0.2% | -3% | -2 | 2% |
| O=C(CSc1nccc2ccccc12)N1CCN(c2ccccn2)CC1 | 3.8% | -21% | 8 | 11% |
| CCN(CC(=O)Nc1ccc2c(c1)OCCO2)C(=O)c1cccc(S(=O)(=O)N2CCOCC2)c1 | -4.3% | -8% | -3 | -2% |
| CC(=O)Oc1ccc(N2C(=O)C3C4C=CC(C5CC45)C3C2=O)cc1[N+](=O)[O-] (configuration not stated) | 1.7% | -11% | -7 | 1% |
| COc1cccc(C2CC(=O)Nc3cc(OC)c(OC)c(OC)c32)c1OC (configuration not stated) | 1.8% | -7% | -2 | 11% |
| CCOC(=O)c1nnn(-c2nonc2-n2cccc2)c1C | 2.2% | -1% | -1 | 1% |
| CC(NC(=O)c1ccccc1N)c1ccccc1 (configuration not stated) | 0.1% | -3% | -1 | -13% |

Going on with the list:
| molecule | Rango complex inh | miR-21 FLuc | GLA inh pH 4.5 | Rango dissoc inh |
| --- | --- | --- | --- | --- |
| O=C(NCc1ccccc1)/C(=C/c1ccc([N+](=O)[O-])cc1)NC(=O)c1ccco1 | 2.8% | 2% | nt | -10% |
| COc1cccc(-n2c([S-])c(C(=O)Nc3ccc(S(=O)(=O)N4CCOCC4)cc3)[n+]3cc(C(N)=O)ccc23)c1 | ? | -11% | -1 | -20% |
| COc1ccc(-c2[nH]ncc2/C=N\NC(=O)c2cccs2)cc1OC | 1.1% | -30% | nt | -8% |
| CCN(Cc1ccccc1)C(=O)c1nn(-c2ccc(OC)cc2)c(=O)c2c1c1ccccc1n2C | 5.3% | 9%&11% | -2 | -8% |
| CCN(Cc1ccccc1)S(=O)(=O)c1c(N)n(C)c(=O)n(C)c1=O | -3.5% | -1% | nt | 2% |
| CCOc1cc(NC(=S)NCCCN2CCOCC2)c(OCC)cc1NC(=O)c1ccccc1 | -4.1% | 0% | 1 | 25% |
| O=C(c1noc2c1CCCC2)N1CCN(C(c2ccccc2)c2ccccc2)CC1 | nt | -3% | -6 | nt |
| O=C(COc1ccc(Cl)cc1)NCCS(=O)(=O)N1CCN(c2ccccc2F)CC1 | -0.6% | 2% | nt | -12% |
| CCOc1ccc(NC(=O)C2CCCN(S(=O)(=O)c3ccc4c(c3)CCCN4C(C)=O)C2)cc1 (configuration not stated) | 1.6% | 7% | nt | 3% |
| CN(C)c1cc(Nc2cccc(O)c2)c([N+](=O)[O-])c2nonc12 | 1.8% | -7% | -1 | 8% |
| COc1ccc(-c2cc(C(=O)NCCN3CCOCC3)no2)cc1OC | 0.0% | -5% | nt | -10% |
| O=C1CC(c2ccccc2)c2ccc(O)cc2O1 (configuration not stated) | -1.5% | 1% | -23 | -7% |
| CCc1ccccc1NC(=O)CN(C1CCCCC1)S(C)(=O)=O | -1.1% | 2% | nt | -8% |
| CC1=C(C(=O)Nc2ccc(CC(=O)NCc3ccc(OC(C)C)cc3)cc2)SCCO1 | -0.3% | -9% | nt | -16% |

Compounds from the list above that have a Cl atom, in the order listed:
| molecule | Rango complex inh | miR-21 FLuc | GLA inh pH 4.5 | Rango dissoc inh |
| --- | --- | --- | --- | --- |
| CC(C)CNC(=O)C1CCCN1S(=O)(=O)c1ccc(Cl)cc1 (configuration not stated) | 0.8% | 1% | -2 | -8% |
| O=C(NC1CC1)C1CCN(c2ccc(S(=O)(=O)N3CCOCC3)cc2Cl)CC1 | 4.4% | 0% | -5 | 2% |
| Clc1ccc(CSc2nnc(/C=C/c3ccccc3)o2)cc1 | -0.1% | -6% | 0 | 9% |
| CC(=O)N1CCN=C1SCc1ccccc1Cl | 0.6% | -2% | -1 | 15% |
| CC(=O)Nc1ccc2[nH]c(C)c(CC=C(Cl)Cl)c(=O)c2c1 | 6.7% | -2% | 0 | -6% |
| CSc1ccc(Cl)c(C(=O)NCc2ccco2)c1 | -5.7% | -3% | 1 | 15% |
| O=[N+]([O-])c1ccc(S(=O)(=O)NN=Cc2ccc(Cl)c(Cl)c2)cc1 | 11% | nt | nt | 11% |
| Clc1ccc(C=NC23CN4CN(CN(C4)C2)C3)cc1 | 3.6% | -3% | 11 | -3% |
| Cc1cccc(N2C(=O)C(Oc3ccc(Cl)cc3Cl)C2C(=O)O)c1C (configuration not stated) | -1.9% | 1% | -24 | -6% |
| Cc1ccccc1Cn1cc(NC(=O)c2nn(C)cc2Cl)cn1 | 3.4% | -26% | 9 | 23% |
| CCN(CC(=O)NCc1ccc(Cl)cc1)C(=O)CSc1cccc(C(F)(F)F)c1 | 0.0% | nt | nt | -5% |
| O=C(COc1ccc(Cl)cc1)NCCS(=O)(=O)N1CCN(c2ccccc2F)CC1 | -0.6% | 2% | nt | -12% |

Record cards, as listed above. Order of values: Rango complex inh, miR-21 FLuc, GLA inh pH 4.5, Rango dissoc inh
Listed for `O=C(COc1ccc(Cl)cc1)NCCS(=O)(=O)N1CCN(c2ccccc2F)CC1` : -0.6%, 2%, nt, -12%
Listed for `CCOCCCNC(=S)N1C2CCC1CC(NC(=O)NC1CCCCC1)C2` (configuration not stated) : -4.6%, -4%, -8, -4%

An excerpt; rates above refer to the full screens.
